# From PubChem
# MenB inh = inhibitors of Mycobacterium tuberculosis MenB enzyme. P9WNP5. MenB enzyme assay, absorbance read-out; some hits fall short of the stated cut. inhibition, %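 (about 12 µg/mL by stock and volumes)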. 100,000 compounds, 0.43% hits. AID 540299;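 active means mean of two replicates above 30%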;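 further: 0% = no compound and 100% = wells with inactive enzyme; the first replicate is given; strong numbers were not always called active; inactives centre near -10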
# MbtI inh = MbtI salicylate synthase inhibition; P9WFX0; purified MbtI enzyme, fluorescence intensity read-out; inhibition, %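 (about 17 µg/mL by stock and volumes)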; 100,000 compounds, 0.89% hits; AID 493033;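 active means above 50% in both replicates, above 80% if mildly self-fluorescent; inactive means the rest, strongly fluorescent compounds included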;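 further: 0% = mean of negative and 100% = mean of positive controls; one replicate is shown; some compounds called inactive have numbers as strong as hits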
# Target sequence (P9WFX0 whole entry, looked up): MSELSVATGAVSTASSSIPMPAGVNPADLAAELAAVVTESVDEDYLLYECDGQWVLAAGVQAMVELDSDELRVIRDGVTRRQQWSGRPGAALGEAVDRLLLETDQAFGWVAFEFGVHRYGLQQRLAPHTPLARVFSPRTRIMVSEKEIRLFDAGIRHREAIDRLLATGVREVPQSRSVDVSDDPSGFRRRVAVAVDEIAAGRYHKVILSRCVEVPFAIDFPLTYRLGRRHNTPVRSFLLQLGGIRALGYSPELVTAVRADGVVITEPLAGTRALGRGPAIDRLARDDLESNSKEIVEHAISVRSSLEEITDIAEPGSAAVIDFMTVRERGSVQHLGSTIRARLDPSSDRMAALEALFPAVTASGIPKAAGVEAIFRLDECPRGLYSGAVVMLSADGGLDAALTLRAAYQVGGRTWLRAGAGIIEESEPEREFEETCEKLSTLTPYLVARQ
# Polio RdRp inh = inhibitors of poliovirus RNA polymerase binding and polymerization | % elongation, % (compound at 16.7 µg/mL) | 150,000 compounds, 0.66% hits | poliovirus polymerase elongation, fluorescence polarization; active compounds read low; in the data active means % elongation below about 90%; further: some results filed as inactive read as strong as hits
# Target sequence (P03300 1749-2209 limits assumed): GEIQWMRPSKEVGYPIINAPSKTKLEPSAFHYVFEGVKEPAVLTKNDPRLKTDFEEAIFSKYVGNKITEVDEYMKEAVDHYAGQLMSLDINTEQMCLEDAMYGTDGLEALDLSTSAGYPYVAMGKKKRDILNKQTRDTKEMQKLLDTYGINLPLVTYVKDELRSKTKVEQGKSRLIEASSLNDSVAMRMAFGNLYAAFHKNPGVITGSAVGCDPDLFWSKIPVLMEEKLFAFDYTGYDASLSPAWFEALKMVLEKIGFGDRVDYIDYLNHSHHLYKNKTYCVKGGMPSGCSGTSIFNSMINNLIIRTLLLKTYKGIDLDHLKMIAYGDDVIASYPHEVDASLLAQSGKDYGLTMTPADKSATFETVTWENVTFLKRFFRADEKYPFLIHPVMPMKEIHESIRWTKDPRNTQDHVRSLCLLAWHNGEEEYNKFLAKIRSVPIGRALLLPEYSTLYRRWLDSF
# Polio RdRp inh intensity = recorded beside Polio RdRp inh, whose call it bears; % elongation; measured here: total intensity read-out; formula for this scale not given here;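 total fluorescence in place of polarization; lower means less elongation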
# * = called active by the depositor; · = not tested or not shown; & = joins results of further samples. Rows were taken by chance; 1.9% or so of the library scored in one or more.
cpd | canonical_smiles | MenB inh | MbtI inh | Polio RdRp inh | Polio RdRp inh intensity
1 | O=C1CC(c2cccc(O)c2)C2=C(CC(c3ccc(F)cc3)CC2=O)N1 (stereo not given) | 2.3 | 8.9 | 100.0 | 100.0
2 | Nc1no[n+]([O-])c1C(=O)NCCO | 22.5 | -1.5 | 100.0 | 102.0
3 | Cc1ccc(S(=O)(=O)N2CCN(C3=CC(=O)CC(C)(C)C3)CC2)cc1 | 6.2 | 4.4 | 100.0 | 94.0
4 | COc1cccc(NC(=O)Cn2ncc3c2-c2ccccc2OC3)c1 | -9.3 | -7.3 | 103.0 | 102.0
5 | CCOC(=O)C1=C(C)OC2=C(C(=O)CC(C)(C)C2)C1c1ccc(CC)s1 (stereo not given) | -20.3 | · | 106.0 | 110.0
6 | CCOC(=O)c1cnc2c(Cl)cc(Cl)cc2c1NCCOCCO | 1.6 | -3.4 | 104.0 | 108.0
7 | Cc1cccc(Nc2cc(Nc3ccc4c(c3)n(C)c(=O)n4C)ncn2)c1 | 2.0 | 26.7 | 102.0 | 103.0
8 | Oc1ccc(-n2nnnc2SCc2ccc(-n3ccnc3)cc2)cc1 | -6.2 | 24.7 | 95.0 | 99.0
9 | CCOC(=O)c1cc2c(=O)n3ccccc3nc2n(C2CCCCC2)c1=N | 9.3 | 116.2 | 99.0 | 121.0
10 | CC1=C(c2ccccc2)S(=O)(=O)NC1=NC1CCN(Cc2ccccc2)CC1 | -11.3 | 1.9 | 101.0 | 103.0
11 | COc1cccc2c1OC(c1ccco1)N1N=C(c3ccccc3)CC21 (stereo not given) | -19.3 | -43.8 | 108.0 | 114.0
12 | Cn1c2c(c(=O)n(C)c1=O)CN(C1CCCC1)CN2 | 9.3 | 5.0 | 102.0 | 103.0
13 | Cc1nn(-c2ccccc2)nc1CNC(=O)c1ccc2nsnc2c1 | -20.8 | 1.1 | 106.0 | 98.0
14 | Cc1ccc(N=C2NC(=O)CC(C(=O)Nc3ccc(Cl)cc3)S2)cc1C (stereo not given) | 3.1 | -6.0 | 103.0 | 103.0
15 | CCN(c1ccccc1)S(=O)(=O)c1ccc(C(=O)N2CCN(c3ncccn3)CC2)cc1 | -7.0 | 14.2 | 98.0 | 104.0
16 | CCN(CC1COc2ccccc2O1)C(=O)c1cnccn1 (stereo not given) | -13.8 | 7.2 | 111.0 | 108.0
17 | CCOC(=O)C1(CCC#N)C(=O)C=C(c2ccc(OC)cc2)CC1c1ccc2ccccc2c1 (stereo not given) | -3.6 | -15.1 | 107.0 | 114.0
18 | O=C(Nc1cccc(F)c1)NC1CCCC1 | 1.2 | -11.7 | 101.0 | 103.0
19 | COc1ccc(CC(CC(=O)O)C(=O)O)cc1 (stereo not given) | 5.9 | -0.9 | 101.0 | 106.0
20 | CCc1nc2ccccc2n1CCC(N)=O | -16.7 | -9.0 | 101.0 | 106.0
21 | CCn1c(=O)c(-c2ccccc2)c(O)c2ccccc21 | -22.3 | 32.5 | 99.0 | 102.0
22 | CC1=CC(=NC#N)C(C)=CC1=NC#N | 16.5 | 35.5 | 105.0 | 98.0
23 | C1=CCC(/C=N/n2cnnc2)CC1 (stereo not given) | -16.5 | 0.6 | 107.0 | 112.0
24 | C=CCn1c(-c2ccco2)nn(C2CC(O)(O)C3OCC2O3)c1=S (stereo not given) (tested in a mixture with another compound) | -23.8 | · | 111.0 | 111.0
25 | c1cncc(-c2noc(-c3cc(C4CC4)[nH]n3)n2)c1 | -7.4 | -19.2 | 101.0 | 103.0
26 | Cc1ccc(N=C(N(C)C)P(=O)(N(C)C)N(C)C)cc1 | -16.4 | -0.6 | 103.0 | 111.0
27 | CC(C)/C(=N/O)c1ccccc1 | -2.4 | -5.0 | 101.0 | 105.0
28 | COc1ccc(CC2CC3CCN2CC3)cc1 (stereo not given) | -1.7 | -8.7 | 100.0 | 102.0
29 | CC(C)C(=O)N1CCN(S(=O)(=O)c2ccc(F)cc2)CC1 | 16.7 | 9.5 | 107.0 | 98.0
30 | COc1ccc(-n2c(-c3ccccc3)csc2=NC(=O)c2ccccc2)cc1 | · | -12.4 | 101.0 | 103.0
31 | O=C(COn1c(=O)n(COC(=O)c2ccccc2)c2ccccc21)c1ccccc1 | -6.4 | 0.2 | 101.0 | 104.0
32 | CNC(=O)c1ccccc1-c1ccccc1 | -15.3 | -13.3 | 103.0 | 102.0
33 | O=C(Cc1ccccc1)OCc1nc2ccccc2s1 | · | -4.1 | 101.0 | 95.0
34 | CCCN1C/C(=C/c2ccc3c(c2)OCO3)C(=O)/C(=C/c2ccc3c(c2)OCO3)C1 | -28.4 | -3.0 | 102.0 | 105.0
35 | CCOC(=O)c1cc(-c2ccccc2)sc1N | · | 12.3 | 104.0 | 98.0
36 | Cc1ccc(C(=O)COC(=O)c2cc(C)oc2C)cc1 | -6.5 | 2.3 | 99.0 | 97.0
37 | Cc1ccccc1Cn1c2ccccc2c2cnn(CC(=O)N3CCCC3)c(=O)c21 | -29.2 | 5.3 | 104.0 | 102.0
38 | COC(=O)COc1ccc2c(=O)c(-c3ccc4c(c3)OCCO4)c(C)oc2c1 | 4.5 | -2.3 | 100.0 | 99.0
39 | Cc1oc(CC(C)C)c(CN2CCOCC2)c1C(=O)O | 4.7 | -9.5 | 103.0 | 101.0
40 | CCCOC(=O)c1c(NC(=O)CSc2nc(-c3ccco3)cc(C(F)(F)F)n2)sc(C(=O)N(C)C)c1C | -3.4 | 37.2 | 99.0 | 103.0
41 | COc1cc(/C=N/c2oc(C)c(C)c2C#N)cc(Br)c1O | -23.9 | · | 147.0 | 210.0
42 | CCOC(=O)CC(C)=Nc1cnn(-c2ccccc2)c1 | -21.5 | -15.5 | 100.0 | 102.0
43 | COc1cccc(N2C(C)=CC(=C(C#N)C#N)C=C2C)c1 | -18.3 | 44.9 | 100.0 | 106.0
44 | O=C(c1ccco1)N1CCN(CC(O)COCc2cccs2)CC1 (stereo not given) | -7.5 | -7.9 | 108.0 | 129.0
45 | Cc1ccc(NC(=O)c2ccccc2NS(C)(=O)=O)cc1C | 2.6 | -86.6 | 97.0 | 100.0
46 | COc1cc(/C=C(\C#N)C(=O)NC2CCCCC2)cc(OC)c1O | -57.9 | 12.9 | 138.0 | 137.0
47 | COC(=O)CNC(c1ccccc1)c1cc(Br)ccc1NC(=O)c1ccccc1Cl (stereo not given) | -31.0 | 7.7 | 101.0 | 98.0
48 | COc1ccccc1Nc1ncnc2ccccc12 | · | 0.6 | 102.0 | 105.0
49 | Cc1ccc(-c2nc(C(=O)Nc3ccc(Cl)cc3)c3n2CCCCC3)cc1 | -4.7 | -8.2 | 103.0 | 103.0
50 | COC(=O)c1ccc(CSc2n[nH]c(-c3ccccc3)n2)o1 | -28.6 | -4.2 | 102.0 | 102.0
51 | CCCCNC(=O)c1cc(Cc2c(C)n[nH]c2C)c(N2CCOCC2)s1 | 16.6 | 1.9 | 102.0 | 98.0
52 | O=S(=O)(Cc1ccco1)Cc1nc(-c2ccc(-c3ccccc3)cc2)cs1 | 12.1 | 39.7 | 105.0 | 106.0
53 | FC(F)(F)c1ccc(N2CCCC2)nc1 | -2.2 | 44.9 | 104.0 | 103.0
54 | O=[P+](O)c1ccc(Cl)cc1 | 2.9 | -7.2 | 93.0 | 97.0
55 | CC1(C)CCc2cc(C3SCCS3)ccc2O1 | -15.1 | -3.8 | 105.0 | 110.0
56 | O=C1CCC/C(=N\NC(=O)Cc2cn3ccsc3n2)C1 | -5.4 | 2.9 | 104.0 | 106.0
57 | COC(=O)c1ccc(COC(=O)c2oc3ccccc3c2COC(C)C)o1 | -16.5 | 28.1 | 100.0 | 98.0
58 | O=C(CCc1nc2ccccc2[nH]c1=O)OCc1ccc(Cl)cc1 | -16.5 | -5.9 | 101.0&100.0 | 94.0&101.0
59 | Cc1ccc(C)c2c(N)c3c(nc12)CCCCC3 | -4.2 | 16.1 | 103.0 | 101.0
60 | COc1ccccc1NC(=O)Cc1nc(CN2CC(C)OC(C)C2)cs1 (stereo not given) | -19.9 | 7.7 | 113.0 | 125.0

# (cont.)
cpd | canonical_smiles | MenB inh | MbtI inh | Polio RdRp inh | Polio RdRp inh intensity
61 | CN(C)c1ccc(/C=C(\C#N)S(C)(=O)=O)c(F)c1C#N | -155.3 | -0.8 | 106.0 | 106.0
62 | CN(C(=O)c1cccc(Nc2ccc(-c3ccc4c(c3)OCCO4)nn2)c1)C1CCCCC1 | -3.1 | 13.8 | 100.0 | 104.0
63 | CCOc1ccc(C2C3=C(CCCC3=O)N(CC)C3=C2C(=O)CCC3)cc1 | -47.7 | · | 105.0 | 126.0
64 | O=C1N=C(O)CN1/N=C/c1ccc(-c2ccc([N+](=O)[O-])cc2)o1 | -6.5 | 14.3 | 101.0 | 100.0
65 | COc1ccc2c(=O)c(Oc3cc(C)ccc3C)coc2c1 | -31.1 | -11.4 | 103.0 | 104.0
66 | C=CCn1c(Sc2ncnc3sc(C)c(C)c23)nnc1C1CCCCC1 | 10.5 | 7.3 | 103.0 | 101.0
67 | O=C(NCCc1ccc(Cl)cc1)c1nc(-c2cccnc2)no1 | 12.0 | -24.6 | 102.0 | 103.0
68 | N#Cc1ccc(N2C(=O)c3ccccc3C2=O)cc1 | 0.0 | · | 95.0 | 104.0
69 | CCOc1ccc2c(c1)-c1c(ssc1=S)C(C)(C)N2C | -42.5 | · | 104.0 | 108.0
70 | Cc1ccc(SCCC(=O)N(C)C)cc1 | -26.6 | -4.1 | 101.0 | 97.0
71 | CCOC(=O)C1=NN(c2ccc(C)cc2)C2c3cccc4cccc(c34)C12 (stereo not given) | -2.1 | -6.7 | 106.0 | 112.0
72 | COC(=O)C1=C(C)N(C(C)c2ccccc2)C(=O)/C1=C\c1ccco1 (stereo not given) | -76.5 | -90.0 | 101.0 | 102.0
73 | COCCNc1nc2ccccc2c2nc(-c3cccnc3)nn12 | 12.5 | 6.4 | 102.0 | 100.0
74 | O=C(CSc1nc2ccsc2c(=O)n1NC(=O)COc1ccccc1Br)NCc1ccco1 | -11.8 | -23.0 | 101.0 | 102.0
75 | COc1ccc2nc(NC(=O)CN(C)S(=O)(=O)c3cccs3)sc2c1 | -13.4 | 7.1 | 102.0 | 107.0
76 | COc1ccccc1CC(C)N (stereo not given) | 6.0 | 9.9 | 103.0 | 104.0
77 | CCCCNc1nc2ccccc2n1CC(=O)Nc1ccc(S(=O)(=O)N2CCCC2)cc1 | -29.1 | 10.4 | · | ·
78 | CCCCn1c(SCC(=O)C(C#N)c2nc(C)cs2)nc2cc(S(N)(=O)=O)ccc21 (stereo not given) | 3.1 | -3.5 | 108.0 | 113.0
79 | Cc1cccc(C)c1NC(=S)N1CC(C)OC(C)C1 (stereo not given) | -14.2 | -7.3 | 105.0 | 109.0
80 | N#Cc1ccc(CN(c2ccncc2)S(=O)(=O)c2ccccc2)cc1 | -15.6 | 13.4 | 107.0 | 108.0
81 | CCOC(=O)c1oc2ccccc2c1COC(=O)c1c(C)nn(-c2ccc(F)cc2)c1Cl | -2.9 | 0.8 | 102.0 | 106.0
82 | CCOC(=O)c1ccc(NC(=O)CS(=O)(=O)c2cn(CC)c3ccccc23)cc1 | -19.5 | -0.8 | 103.0 | 104.0
83 | Cc1ccc(NC(=O)COc2cccc3c2CCNC3=O)cc1Cl | -15.7 | -14.8 | 103.0 | 103.0
84 | Cc1cc(C(C)(C)C)ccc1OCCN(C)C | -21.1 | 1.1 | 98.0 | 102.0

# Compounds from the list above with an aryl methoxy group, in the order listed:
cpd | canonical_smiles | MenB inh | MbtI inh | Polio RdRp inh | Polio RdRp inh intensity
4 | COc1cccc(NC(=O)Cn2ncc3c2-c2ccccc2OC3)c1 | -9.3 | -7.3 | 103.0 | 102.0
11 | COc1cccc2c1OC(c1ccco1)N1N=C(c3ccccc3)CC21 (stereo not given) | -19.3 | -43.8 | 108.0 | 114.0
17 | CCOC(=O)C1(CCC#N)C(=O)C=C(c2ccc(OC)cc2)CC1c1ccc2ccccc2c1 (stereo not given) | -3.6 | -15.1 | 107.0 | 114.0
19 | COc1ccc(CC(CC(=O)O)C(=O)O)cc1 (stereo not given) | 5.9 | -0.9 | 101.0 | 106.0
28 | COc1ccc(CC2CC3CCN2CC3)cc1 (stereo not given) | -1.7 | -8.7 | 100.0 | 102.0
30 | COc1ccc(-n2c(-c3ccccc3)csc2=NC(=O)c2ccccc2)cc1 | · | -12.4 | 101.0 | 103.0
41 | COc1cc(/C=N/c2oc(C)c(C)c2C#N)cc(Br)c1O | -23.9 | · | 147.0 | 210.0
43 | COc1cccc(N2C(C)=CC(=C(C#N)C#N)C=C2C)c1 | -18.3 | 44.9 | 100.0 | 106.0
46 | COc1cc(/C=C(\C#N)C(=O)NC2CCCCC2)cc(OC)c1O | -57.9 | 12.9 | 138.0 | 137.0
48 | COc1ccccc1Nc1ncnc2ccccc12 | · | 0.6 | 102.0 | 105.0
60 | COc1ccccc1NC(=O)Cc1nc(CN2CC(C)OC(C)C2)cs1 (stereo not given) | -19.9 | 7.7 | 113.0 | 125.0
65 | COc1ccc2c(=O)c(Oc3cc(C)ccc3C)coc2c1 | -31.1 | -11.4 | 103.0 | 104.0
75 | COc1ccc2nc(NC(=O)CN(C)S(=O)(=O)c3cccs3)sc2c1 | -13.4 | 7.1 | 102.0 | 107.0
76 | COc1ccccc1CC(C)N (stereo not given) | 6.0 | 9.9 | 103.0 | 104.0
